# Screening data as filed in PubChem BioAssay.
# IMPase cell inh = cell-permeable inhibitors of inositol monophosphatase (IMPase). P97697. CHO-M1 cells, IP1 accumulation, HTRF TR-FRET ratio. inhibition (IP1 accumulation), % at 46.1 µM. 120,000 tested, under 10 active. AID 901; active = well fitted curve in the direction sought with a large enough effect in the signal ratio, not every such curve was filed as active; inconclusive = small, poorly fitted or top-dose-only effect, or a change in a side signal; inactive = no such curve, though single readings can be large or run the other way; the % refers to the signal ratio;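 note: cells stimulated with carbachol in lithium chloride buffer; plate controls were DMSO basal wells for no effect and reference inhibitor wells for full effect; higher means more IMPase inhibition seen as more IP1 and lower FRET ratio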
# Target sequence (P97697 whole entry, looked up): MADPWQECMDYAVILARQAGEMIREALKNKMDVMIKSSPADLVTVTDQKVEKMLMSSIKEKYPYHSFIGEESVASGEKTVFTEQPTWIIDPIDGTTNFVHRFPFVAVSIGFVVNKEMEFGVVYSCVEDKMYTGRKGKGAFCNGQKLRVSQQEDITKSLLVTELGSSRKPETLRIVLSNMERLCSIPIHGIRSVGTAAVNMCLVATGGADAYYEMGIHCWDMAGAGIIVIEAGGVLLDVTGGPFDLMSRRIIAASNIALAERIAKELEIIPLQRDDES
#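 Cellular IMPase inhibition is scored as a rise in cytosolic IP1, detected by competitive TR-FRET between d2-labelled IP1 and a europium anti-IP1 antibody. M1-expressing CHO cells were stimulated with carbachol for 30 min at 37C, with lithium (50 mM LiCl) present in the buffer.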
# PNC inhibitor = blocks assembly of the perinucleolar compartment; AID 2417; activity change (PNC), negative = inhibition, % at 10 µM; PC3M PTB-GFP, PNC prevalence imaging, 16 h; stronger effect = lower value; actives 3.1% (n = 140,000);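 active = readout at or below -70, meaning at least 70% loss of cells showing the perinucleolar compartment, a nuclear body marking cancer cells; inconclusive = readout between -30 and a set limit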;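 note: plate controls were DMSO wells for no effect and camptothecin positive control wells for full effect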
#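 Compounds are pinned in duplicate onto adhered PC3M cells stably expressing GFP-tagged PTB and incubated 16 h at 37 C. Cells are then fixed, nuclei stained with Hoechst, and PNC-positive cells counted.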
# ALOX12 inhib = 12-hLO (ALOX12) enzyme inhibition; P18054; purified 12-hLO, xylenol orange hydroperoxide absorbance; Potency, µM (highest dose often 57.1 µM), inactives show at the highest dose activity change, negative = inhibition, actives largely listed as inhibitors; actives 0.12% (n = 150,000); active = well fitted inhibition curve with a large enough effect; inconclusive = small, poorly fitted or top-dose-only effect; note: potency is the fitted concentration of half-maximal effect; nearly all actives have a fitted effect of over 55% in size; many of its hits are not listed in these tables
# Target sequence (P18054 whole entry, looked up): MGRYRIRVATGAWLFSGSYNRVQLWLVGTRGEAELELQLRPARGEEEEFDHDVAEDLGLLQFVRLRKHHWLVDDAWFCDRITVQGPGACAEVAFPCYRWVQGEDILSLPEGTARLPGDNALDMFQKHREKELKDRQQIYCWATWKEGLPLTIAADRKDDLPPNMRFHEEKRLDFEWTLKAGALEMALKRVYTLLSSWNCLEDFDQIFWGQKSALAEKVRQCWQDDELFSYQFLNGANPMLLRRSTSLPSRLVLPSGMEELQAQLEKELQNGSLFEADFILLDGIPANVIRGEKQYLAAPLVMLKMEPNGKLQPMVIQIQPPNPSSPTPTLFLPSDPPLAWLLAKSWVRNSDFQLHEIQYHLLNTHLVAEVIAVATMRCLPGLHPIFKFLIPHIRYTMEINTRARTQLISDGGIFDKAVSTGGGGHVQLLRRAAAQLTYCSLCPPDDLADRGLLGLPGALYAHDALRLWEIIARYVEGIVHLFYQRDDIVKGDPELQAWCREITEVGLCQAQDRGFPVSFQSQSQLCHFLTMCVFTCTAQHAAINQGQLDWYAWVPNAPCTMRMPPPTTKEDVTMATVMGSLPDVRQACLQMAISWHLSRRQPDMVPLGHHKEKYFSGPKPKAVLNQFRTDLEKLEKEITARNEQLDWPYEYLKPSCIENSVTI
#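 Lipoxygenase turnover measured by absorbance at 573 and 405 nm after Fe-XO development. Human 12hLO 150 nM, arachidonate 40 uM, pH 7.0 Hepes buffer with detergent; 15 min compound preincubation, 30 min reaction.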
# * marks the source's active call; other numbers are inactive results; ? = inconclusive; . = no result given; & = joins results of further samples. Unless noted, % is set by controls: 0 for no effect and ±100 for the full control effect. Only part of the results is shown; count on the stated rates, not on these rows.
SMILES,IMPase cell inh,PNC inhibitor,ALOX12 inhib
C=CCn1c(=O)[nH]c2cc(C(=O)N3CCN(c4cccc(Cl)c4)CC3)ccc2c1=O,?,?,-10%
CN(c1ccccc1)c1nc(N2CCCC2)nc(-n2ccnc2)n1,7,-20,-3%
COc1ccc(C(=O)O/N=C(/C)c2cccs2)cc1,-4,-19,-3%
Cn1c(SCCOc2ccccc2Cl)nnc1-c1ccncc1,-2,20,0%
COC(=O)c1ccccc1N1C(=O)C2C(C1=O)C1C=CC2C12CC2 (stereo unspecified),5,-13,2%
S=c1[nH]nc(CSCc2ccc(Cl)cc2Cl)n1-c1ccccc1,2,?,?
Clc1nc2sccn2c1/C=N/n1cnc2ccccc21,9,18,3%
O=C1Nc2c(c(=O)[nH]c(=O)n2-c2ccccc2)C(C(F)(F)F)(C(F)(F)F)N1,9,21,5%
C/C=C/c1ccc(Oc2nnnn2-c2ccc(C(N)=O)cc2)c(OC)c1,-8,3,3%
CC(=O)C1=C(O)C(=O)N(CCC(=O)O)C1c1ccc(Cl)cc1Cl (stereo unspecified),-24,-16,22%
CCCCn1nnnc1NCc1cc(OC)c(OC)cc1OC,3,9,-2%
CC(=O)Cc1nsc(NC(=O)c2c(-c3ccccc3Cl)noc2C)n1,1,-7,0%
COc1cc(S(=O)(=O)N2CCCCCC2)ccc1Cl,-15,-20,-7%
COc1ccc(NC(=O)N2CCC3(CC2)CCN(S(=O)(=O)c2ccccc2)CC3)cc1,.,.,2%
Cc1ccc(-n2c(SCC(N)=O)nnc2-c2ccccn2)cc1C,14,-8,-3%
Cc1c(C(=O)Nc2ccc3c(c2)OCO3)sc2ncn(CC(=O)N3CC(C)CC(C)C3)c(=O)c12 (stereo unspecified),-6,1,-2%
COC(=O)C(NC(C)=O)(Nc1sc2c(c1C(N)=O)CCCC2)C(F)(F)F (stereo unspecified),-2,-14,-5%
COc1cc(NS(=O)(=O)c2ccc(F)cc2)c(C(=O)O)cc1OC,-2,?,-4%
Clc1ccc(CSc2snnc2-c2ccccc2)cc1,11,0,-2%
Cn1c(C2CC(=O)N(Cc3ccccc3)C2)nc2ccccc21 (stereo unspecified),-3,9,-8%
Cc1ccc(C2C3=C(NCCN=C3c3ccccc3)C(=O)N2c2ccccc2)cc1 (stereo unspecified),-1,3,3%
COc1cccc(OCC(=O)Nc2ccccc2C(N)=O)c1,5,32,2%
COc1ccc(C(C#N)Nc2ccccc2C)cc1 (stereo unspecified),-8,-11,-4%
COc1ccc(-c2ccc3c(N)c(C(=O)c4ccc(OC)c(OC)c4)sc3n2)cc1,-19&-2,?,-5%
CCOc1ccccc1NC(=O)C1CCN(S(=O)(=O)c2ccc(OC)c(OC)c2)CC1,1,-9,-3%
COc1ccc(C(=O)NC(=S)NC(C)(C)C)cc1Br,5,27,?
COCCn1c(=O)[nH]c2cc(C(=O)NCCCN3CCN(c4ccc(F)cc4)CC3)ccc2c1=O,5,103,-2%
C=C(C)Cn1c(C2CC(=O)N(Cc3ccccc3)C2)nc2ccccc21 (stereo unspecified),1,?,-4%
O=C(CSc1nnc2c3c4c(sc3ncn12)CCCC4)NCc1ccco1,0,?,-5%
COc1ccc(Cl)cc1N(CC(=O)Nc1ccccc1C(=O)NCc1ccco1)S(C)(=O)=O,16,-19,5%
COc1cc2c(cc1NC(=O)C(C)Sc1ccc(C)cc1)oc1ccccc12 (stereo unspecified),-6,?,-9%
Cc1cccc(OCCCC(=O)Nc2ccc3c(c2)OCO3)c1,3,8,-9%
Cc1ccc(-c2cnc(NC(=O)CCC(=O)N(C)Cc3ccccc3)n2C)cc1,6,-21,-5%
CN1CCc2c(sc3nc(SCC(=O)N4CCOCC4)nc(N)c23)C1,14,9,-1%
O=CN1CC(=O)N(c2ccccc2)c2c([nH]c3ccccc23)C1,-4,-11,1%
COc1ccc(OC)c(CN(CCCN2CCOCC2)S(=O)(=O)c2ccc(NC(C)=O)cc2)c1,3,-17,-3%
O=C(N/C=N/OCc1cccc(C(F)(F)F)c1)N1OC[C@@H]2COc3ccc4ccccc4c3[C@@H]21,-1,?,3%
O=c1c2ccccc2nc(-c2ccc(Cl)c(Cl)c2)n1O,-7,-3,-22%
Cc1nn(-c2ccccc2)c2[nH]c(=O)c(CNCC3CCCO3)cc12 (stereo unspecified),0,10,0%
CC(=O)Nc1nc(C)c(Oc2ccc(Cl)cc2Cl)c(=O)[nH]1,4,-10,-24%
Cc1ccc2cc(C(c3nnnn3Cc3ccccc3)N3CCc4ccccc43)c(=O)[nH]c2c1C (stereo unspecified),0,7,-2%
CC/C=C/C/C=C/C/C=C/CCCCCCCC(=O)OCC,.,.,-3%
Cc1ccc(C)c(-c2cc(C(=O)Nc3nccs3)c3ccccc3n2)c1,-2,15,-1%
O=c1cc(O)nc(SCc2ccccc2Cl)[nH]1,2,13,1%
COc1cc2c(cc1NC(=O)c1cccc([N+](=O)[O-])c1C)oc1ccccc12,7,57,2%
COc1cccc(NC(=O)COC(=O)c2c3c(nc4ccccc24)CCC(C)C3)c1 (stereo unspecified),13,83,-3%
CCN1CCCC1CNC(=O)c1ccc2c(=O)n(CCOC)c(=O)[nH]c2c1 (stereo unspecified),15,25,-5%
O=C(c1cccs1)N1CCC(c2nc3ccccc3s2)CC1,2,46,2%
Cc1ccc(C(=O)NC(=S)Nc2cccc3c(C)cc(C)nc23)cc1,2,-23,?
NC(=O)C(c1ccc(Sc2ccccc2)nn1)c1ccc(Cl)cc1Cl (stereo unspecified),7,20,-11%
CCCc1nc(C)c(-c2ccc(OC)c(OC)c2)c(=O)[nH]1,1,-19,-2%
CCc1cc(=O)oc2cc(OCc3nn[nH]n3)ccc12,11,?,5%
CCC(=O)NC(=S)Nc1ccccc1F,6,?,-10%
O=C1CNC(=O)/C1=C\N1CCN(C(c2ccccc2)c2ccccc2)CC1,13,26,-4%
CC(=O)Nc1cc(NC(C)=O)c2nc(N)sc2c1,7,7,-2%
O=C(O)Cc1csc(NC(=O)c2ccco2)n1,?,11,-4%
O=C(/C=C/NNC(=O)c1cccc(Br)c1)c1cccc(Br)c1,9,6,-18%
Cc1cnc(NC(=O)c2ccco2)s1,-14,-11,0%
N#CCCN1CCN(C(CNS(=O)(=O)c2ccc(Cl)cc2)c2ccccc2)CC1 (stereo unspecified),2,-17,-6%
COc1cc(S(=O)(=O)N2CCCCC2)ccc1NC(=O)/C=C/c1ccccc1,0,41,-2%
# Next records
SMILES,IMPase cell inh,PNC inhibitor,ALOX12 inhib
O=c1c2c3nc4ccccc4nc3n(/N=C/c3cccs3)c2ncn1-c1ccccc1,-4,10,-7%
N#Cc1c(N)n(CCNC(=O)c2ccc(Cl)cc2)c2nc3ccccc3nc12,-13,18,-10%
CCn1c(COc2ccc(C(C)C)cc2)nnc1SCC(=O)Nc1nccs1,1,-6,9%
Cc1cc(=O)oc(C)c1C(=O)N[C@@H]1CCCCNC1=O,-6,?,-1%
CC1=C(C(=O)OCC2CCCO2)C(c2cccc(C(F)(F)F)c2)C2=C(CC(c3ccco3)CC2=O)N1 (stereo unspecified),4,47,5%
COc1c(C)cccc1C(=O)NC(=S)Nc1ccc2c(c1)Cc1ccccc1-2,-1,4,-3%
CC1=CC(C)(C)Nc2ccc(OC(=O)c3cccnc3)cc21,7,-10,-15%
O=C1CCCCC1C(Nc1ccc(Cl)cc1)c1ccccc1 (stereo unspecified),-2,?,-7%
CCCC(=O)Nc1nc2c(c(=O)[nH]1)CCCC2,0,-8,2%
O=C(COC(=O)C12CC3CC(CC(C3)C1)C2)NCCc1ccccc1,1,-4,3%
COc1cc2c(cc1OC)-c1cc(N3CCCCCC3)nc(=O)n1CC2,-1,-8,3%
CCN1CCN(C(CNS(=O)(=O)c2ccc(OC)cc2)c2cccnc2)CC1 (stereo unspecified),7,-4,5%
CC(C)C(c1nnnn1Cc1ccccc1)N1CCN(Cc2ccc3c(c2)OCO3)CC1 (stereo unspecified),4,-17,-6%
Cn1c(COc2ccccc2)nnc1SCC(=O)Nc1ccc(S(N)(=O)=O)cc1,-11,27,-2%
COc1ccc(C(=O)CCC(=O)O)c(C)c1,1,35,2%
CCOC(=O)CNC(=O)CSc1nnc(COc2ccc(Cl)cc2)n1CC,0,13,-4%
Cc1ccc2occ(C3NC(C(=O)O)CS3)c(=O)c2c1 (stereo unspecified),.,?,-9%
COc1ccc(-n2ncc3c(NC(C)C)ncnc32)cc1,6,-15,-7%
CSc1nc(C)c2c(n1)OC(CN1C(=O)c3ccccc3C1=O)C2 (stereo unspecified),-9,15,-4%
Cc1cc(O)cc(=O)n1Cc1ccco1,0,?,-5%
S=c1[nH]cc(-c2ccccc2)n1-c1ccccc1,6,1,-20%
Cc1ccc(NC2SC(=O)N(CC(=O)O)C2=O)cc1 (stereo unspecified),?,11,-6%
CCOC(=O)N1CCN(Cc2cc(=O)oc3ccc(Cl)cc23)CC1,-11,11,-7%
CC(Sc1nnnn1C)C(=O)Nc1ccc(Oc2ccccc2)cc1 (stereo unspecified),1,38,1%
O=C(O)c1cccc(S(=O)(=O)N2CCSCC2)c1,-5,?,-1%
COc1ccc(-c2cc3ccccc3oc2=O)cc1NC(=O)c1cccnc1,0,-10,-5%
CC1=C(C(=O)OCC2CCCO2)C(c2ccccc2OC(C)C)C2=C(CC(c3ccco3)CC2=O)N1 (stereo unspecified),-3,?,2%
Cc1cccc(Oc2sc(C(=O)c3ccccc3)c(N)c2C#N)c1C,1,1,-11%
COc1ccc(-c2noc(C)c2-c2ccc3ccccc3n2)c(O)c1,15,?,-11%
COC(=O)c1c(OC)cc2c(c1C)Oc1c(Cl)c(OC(C)=O)c(Cl)c(C)c1C(=O)O2,.,.,-6%
COc1ccc(S(=O)(=O)N(CCc2ccccc2)CC(=O)O)cc1Cl,6,?,-1%
CCCCCOc1ccc(N2C(=O)CC(N(O)c3ccccc3)C2=O)cc1 (stereo unspecified),-5,11,-19%
Cc1ccc2[nH]c(C(=O)O)c(NC(=O)CN3CCN(c4cccc(C)c4C)CC3)c2c1,-1,-1,-6%
O=c1c2ccccc2[nH]c(=S)n1CCN1CCC(=C(c2ccc(F)cc2)c2ccc(F)cc2)CC1,.,24,1%
C=CCNc1nc(N(c2ccccc2)c2ccccc2)nc(-n2ccnc2)n1,2,13,0%
COc1ccccc1NC(=O)c1ccc(S(=O)(=O)N2CCCC2)cc1,0,1,1%
CCc1ccc(NCc2cc3c(C)nn(-c4ccccc4)c3[nH]c2=O)cc1,0,12,-2%
O=C(Nc1ccncc1)c1ccccc1F,-4,1,0%
CC1(C)Cc2ccccc2C(/C(=N/O)C(N)=O)=N1,4,33,-4%
CSc1nc(N)nc(SCC(=O)OC(C)C)c1C#N,-5,40,-2%
COCCn1nnnc1C(c1cc2cc(C)ccc2[nH]c1=O)N1CCc2ccccc21 (stereo unspecified),-3,11,-13%
S=c1nc(-c2ccccc2)n(CCCn2ccnc2)c2c1CCCC2,-12,-27,0%
CCOC(=O)/C(C#N)=C1/C=C(C)NC(c2ccccc2O)=N1,?,7,3%
COc1nc(N2CCOCC2)nc(-n2cccc2)n1,1,5,4%
CC(C)(C)c1ccccc1N=Cc1ccc2ccccc2n1,0,-18,1%
O=S(=O)(NC1CCCCC1NCc1ccco1)c1ccccc1 (stereo unspecified),-4,29,-3%
C=CCSc1nnc(NC(=O)c2ccc(S(=O)(=O)NCC3CCCO3)cc2)s1 (stereo unspecified),-2,-11,3%
CCCCn1nnnc1NCc1ccc(OC)c(OC)c1,7,?,-1%
COc1ccc(-c2nnc(SCCC(=O)O)n2C)cc1OC,4,?,3%
Cc1cc(C)c(-c2noc(C(=O)OC(C)(C)C)c2C(=O)OC(C)(C)C)c(C)c1,13,-22,6%

# A draw from above in order of heavy-atom count, largest number first:
SMILES,IMPase cell inh,PNC inhibitor,ALOX12 inhib
C=CCSc1nnc(NC(=O)c2ccc(S(=O)(=O)NCC3CCCO3)cc2)s1 (stereo unspecified),-2,-11,3%
O=S(=O)(NC1CCCCC1NCc1ccco1)c1ccccc1 (stereo unspecified),-4,29,-3%
COc1ccc(-c2nnc(SCCC(=O)O)n2C)cc1OC,4,?,3%
CCCCn1nnnc1NCc1ccc(OC)c(OC)c1,7,?,-1%
COc1nc(N2CCOCC2)nc(-n2cccc2)n1,1,5,4%
